# Calb FLC – C. albicans growth inhibition with fluconazole, primary screen, CaCi-2 strain, Alamar Blue fluorescence; C. albicans CaCi-2 (fluconazole-resistant clinical isolate) + fluconazole, 48 h; growth inhibition, % (no concentration beside the values); hit rate 0.57% among 300,000; AID 1979, 2009;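 active = most replicates above 75%; inconclusive = exactly half above 75%; inactive = most below 75%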;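 also: all wells also contain fluconazole at 8 µg/ml as a sub-toxic cotreatment; 0% = median of DMSO wells and 100% = median of geldanamycin control wells; wells of about 8 µL received 7.5 nL stock; the first replicate is given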
# Beta apoptosis – inhibitors of cytokine-induced beta cell apoptosis, primary screen, luminescence | hit rate 0.8% among 300,000 | AID 435005, 2010 | INS-1E cytokine-induced death, ATP luminescence, 48 h; percent of positive-control rescue, neutral wells zero | protection from apoptosis, % (no concentration beside the values);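 active = all replicates at 75% or more, or half of them and the mean; inconclusive = half reach 75% but not the mean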;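 also: 0% = cytokine-treated negative control wells and 100% = positive control rescue; higher means more ATP so stronger rescue from cytokine killing; wells of about 40 µL received 100 nL stock; the first replicate is given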
# T cruzi inh – inhibitors of intracellular T. cruzi growth, primary screen, luminescence, NIH3T3 host cells; T. cruzi beta-gal in NIH3T3, 90 h; inhibition, % (test concentration not listed); hit rate 1.4% among 300,000;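 active = mean inhibition across valid replicates above about 55%, limit read from the data; inconclusive = mean below that limit but half or more replicates reach it; inactive = mean below it, under half of replicates reach it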;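 also: signal also drops with host cell toxicity which is not excluded here; 0% = plate median of DMSO wells and 100% = zero luminescence signal; higher percent means less beta-gal luminescence so fewer parasites; stock transfer was 50 nL into about 50 µL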
# Bfl-1 A1 inh – caspase 3/7 activation in MEF A1-2A-BIM cells, primary screen, A1 inhibitor project, cell-based, luminescence, HTS; hit rate 0.066% among 330,000; AID 2462, 2010; caspase activation, % (no concentration beside the values); Caspase-Glo 3/7 luminescence, 3 h; percent of clofoctol response, vehicle zero;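 active = over half of replicate activation scores above 10%, or exactly half above 10 with the replicate mean above 10; inconclusive = replicate mean below 10 yet half the replicates above 10; inactive = over half of replicates below 10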;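 also: wells of about 30 µL received 50 nL stock; many hits fall short of the cut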
# Vif TR-FRET – inhibitors of Vif binding to APOBEC3G peptide, primary screen, biochemical, TR-FRET, GST-Vif 1-94, biotin-A3G peptide, dose response retest (AID 1117319); Virion infectivity factor (Human immunodeficiency virus type 1 group M subtype B (isolate …; TR-FRET GST-Vif / biotin-A3G peptide binding; higher % means a stronger effect; test concentration not given here; strong numbers were not always called active; inhibition, %; hits with a dose series show IC50 in µM; hit rate 0.57% among 260,000;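 active = above the screen mean plus three standard deviations and confirmed in dose response; inconclusive = results disagree or hit not tested in dose response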;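 also: Vif residues 1-94 fused to GST binding biotinylated APOBEC3G peptide 110-148; 0% = full assay without inhibitor and 100% = GST in place of GST-Vif; retest series ran down from 100 µM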
# RanGTP-Impb inh – inhibitors of RanGTP-importin-beta interaction, primary screen, biochemical, FRET, CFP-Ran, YFP-importin-beta, homogeneous; AID 2216, 2009; Ran GTPase (GTP-bound) - importin-beta complex; inhibition, % (concentration not given with the values); cell-free CFP-Ran/YFP-importin-beta FRET ratio; hit rate 1.1% among 300,000;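 active = most replicates above 15%; inconclusive = exactly half above 15%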;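 also: 0% = DMSO wells and 100% = Ran loaded with GDP instead of GTP; wells of about 40 µL received 100 nL stock; the first replicate is given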
# MLL AF4-AF9 inh – inhibitors of AF4 peptide binding to AF9, primary screen, biochemical, AlphaScreen, biotin-AF4 peptide, FLAG-AF9, single point; Protein AF-9 (Homo sapiens), P42568; inhibition, % at 10 µM; hit rate 0.47% among 350,000; AID 651704, 2012;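 active = every replicate reaching a set inhibition limit, whatever the replicate mean, cut at about 25% in these data; inconclusive = mean inhibition reaches that limit but some replicates miss it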;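 also: 0% = plate neutral control median and 100% = total signal loss; the record names both 10 and 1 µM as test concentration; the first replicate is given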
# Target sequence (P42568 whole entry, looked up): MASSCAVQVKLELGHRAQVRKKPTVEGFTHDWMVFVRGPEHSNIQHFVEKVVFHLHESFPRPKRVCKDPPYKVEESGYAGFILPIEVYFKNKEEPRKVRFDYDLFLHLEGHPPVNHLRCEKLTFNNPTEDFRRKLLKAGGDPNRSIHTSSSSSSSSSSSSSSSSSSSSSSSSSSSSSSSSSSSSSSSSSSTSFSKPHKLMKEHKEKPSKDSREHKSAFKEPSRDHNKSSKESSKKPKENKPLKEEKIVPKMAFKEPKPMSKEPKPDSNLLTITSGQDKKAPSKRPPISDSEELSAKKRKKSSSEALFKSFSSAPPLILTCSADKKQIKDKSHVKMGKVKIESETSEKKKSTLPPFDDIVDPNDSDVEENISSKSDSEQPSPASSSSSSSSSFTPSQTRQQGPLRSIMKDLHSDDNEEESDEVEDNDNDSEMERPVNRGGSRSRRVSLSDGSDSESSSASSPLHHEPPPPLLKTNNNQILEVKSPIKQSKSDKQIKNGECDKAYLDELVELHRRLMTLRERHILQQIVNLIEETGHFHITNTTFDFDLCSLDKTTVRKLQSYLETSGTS
# rRNA inh HTS – reduced GFP signal of wild-type E. coli, primary screen, bacterial rRNA inhibitor project, GFP/RFP fluorescence, OD600, single point. E. coli WT GFP vs humanized-ribosome RFP mutants, 24 h; active compounds read low; DMSO median 0, no signal -100. GFP signal change (wild-type ribosome), % (test concentration not listed). hit rate 1.6% among 350,000. AID 720706, 2013;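 active = significant combined selectivity score with lowered wild-type GFP, culture density cut under 30%, mutant RFP and density less affected; inactive = any of these conditions unmet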; also: one replicate is shown; some compounds called inactive have numbers as strong as hits
# rRNA inh HTS OD600 – further read-out of rRNA inh HTS, marked with its call; OD600 change, %; measured here: OD600 growth;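 optical density of the mix in the first replicate; 0 = DMSO median and -100 = no signal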
# rRNA inh HTS RFP – recorded beside rRNA inh HTS, whose call it bears; RFP signal change, %; measured here: RFP humanized mutant strains;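 first replicate; 0 = DMSO median and -100 = no signal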
# Starred values were filed as active, the others as inactive; ? = inconclusive; . = no result given. Some of the compounds tested. The share of hits here may be higher or lower than overall.
SMILES,Calb FLC,Beta apoptosis,T cruzi inh,Bfl-1 A1 inh,Vif TR-FRET,RanGTP-Impb inh,MLL AF4-AF9 inh,rRNA inh HTS,rRNA inh HTS OD600,rRNA inh HTS RFP
O=C(NC1CCS(=O)(=O)C1)c1ccc(S(=O)(=O)N2CCCCC2)cc1 (stereo not given),-10,-2,-4,2.0,25%,-1.1,-2.4,.,.,.
O=C(Oc1cccc(F)c1)c1ccc2c(=O)n3c(nc2c1)CCC3,3,2,-8,-0.5,.,0.7,-0.8,2,11,-2.6
COc1ccc(N(CC(=O)Nc2ccc(C)cc2C)S(=O)(=O)c2c(C)n[nH]c2C)cc1,7,-4,16,1.3,.,3.2,-0.2,-2,-5,0.6
Cc1cc(NC(=O)c2cccc(F)c2)ncc1NC(=O)c1ccco1,-7,3,-10,-1.3,1%,6.2,.,.,.,.
COC(=O)C1=C(C(=O)OC)[C@@H]2N(C)c3ccccc3[C@@]23C[C@@H](C(=O)OC)N(C(=O)COCc2ccccc2)C3=N1,-12,-2,11,-0.2,.,0.7,.,.,.,.
Nn1c(Cc2cccc3ccccc23)nnc1SCC(=O)N1CC(=O)Nc2ccccc21,-6,3,6,1.7,-2%,-3.8,.,-15,-8,-1.7
CN(C)CCNc1ncnc2c1cnn2-c1ccc(Cl)cc1,1,7,26,-0.3,-4%,7.0,4.1,-3,-3,3.5
CCn1c(SCC(=O)Nc2ccc(NC(C)=O)cc2)nnc1C1CC1,-4,3,-10,?,-3%,0.3,.,.,.,.
COc1ccccc1NC(=O)C(=O)Nc1ccccn1,-6,-6,1,-4.7,-2%,-3.1,-9.8,10,8,-3.4
O=C(CNCc1ccc(Cl)cc1)NCc1ccco1,19,0,2,0.2,-4%,-1.9,-0.1,0,2,0.9
COc1cc(C(=O)Nc2cccc3ncccc23)cc(OC)c1OC,-4,-8,-20,-0.1,1%,0.6,.,.,.,.
O=C(Nc1ccccc1O)c1ccccc1O,54,.,2,-5.4,5%,-1.7,.,.,.,.
COc1ccc(/C=N/NC(=O)c2cccnc2)cc1CN1CCc2ccccc2C1,-2,1,37,-0.2,2%,-9.3,13,10,5,3.1
Cc1ccc(S(=O)(=O)N2CCOCC2)cc1C(=O)Nc1ccccc1N1CCCC1,0,-5,1,1.3,.,.,?,4,5,1.2
CN1CCN(C(CNS(=O)(=O)c2ccc([N+](=O)[O-])cc2)c2ccc(F)cc2)CC1 (stereo not given),0,1,53,0.7,2%,0.7,3.1,-2,7,-2.8
Cc1ccc(C2Nc3cccc4cccc(c34)N2)cc1,5,-2,5,1.9,.,3.8,3.3,-20,37,-14
Cc1ccc(NCc2nnc(SCC(=O)Nc3ccccc3)n2CC2CCCO2)c(C)c1 (stereo not given),-13,0,1,2.1,2%,0.7,.,.,.,.
Cc1cccn2cc(-c3ccc4c(c3)NC(=O)CO4)nc12,17,0,-10,-1.0,-5%,3.0,-0.7,-7,-4,-7.3
CC(=O)NC(=S)Nc1ccccc1N1CCN(C(=O)c2ccccc2)CC1,-5,-8,6,0.4,-13%,0.0,-0.9,7,12,-1.3
Cc1onc(-c2ccccc2Cl)c1C(=O)OCc1cnc(Cl)s1,1,0,12,0.8,20%,0.6,-4.5,-59,-76,-21
COc1ccc([N+](=O)[O-])cc1NC(=O)c1ccc(Br)s1,-20,0,3,-0.3,.,-0.2,0.2,17,20,3.6
O=C(NCc1ccco1)c1nc2c(nnn2Cc2cccc(Cl)c2)c(=O)[nH]1,?,-2,-4,-0.5,-1%,-0.4,.,.,.,.
CCCc1[nH]n(-c2ccc([N+](=O)[O-])cc2)c(=O)c1C=NCCc1ccc(OC)c(OC)c1,-21,3,12,0.1,.,1.6,-0.7,3,9,4.3
CCC(=O)Nc1nnc(SCc2ccc(F)cc2)s1,-2,-5,8,0.6,2%,-2.1,.,.,.,.
CN(C)CCNC(=O)c1cccc(S(=O)(=O)Nc2ccccc2F)c1,5,-3,-9,0.9,.,4.3,0.3,9,2,-5.5
O=C(OCC(=O)N(CCc1ccccc1)Cc1ccccc1)c1ccccc1O,-11,3,8,-0.4,-3%,1.1,-25,4,-4,2.6
O=C(Cc1n[nH]c(=O)c2ccccc12)NCc1ccccc1,-2,-1,-3,0.5,5%,1.1,-0.7,8,10,3.8
CCOC(=O)c1c(C)[nH]c(C)c1C(=O)CSc1nnc(-c2ccc(OC(F)F)cc2)o1,-2,12,9,0.2,21%,-0.4,.,.,.,.
O=C1CC(c2ccc3c(c2)OCO3)C2=C(CCCC2=O)N1 (stereo not given),-4,2,-7,-0.9,3%,4.0,.,.,.,.
CCN(c1cccc2ccccc12)S(=O)(=O)c1cccs1,.,-4,.,-0.4,.,.,1.0,-19,-42,-7.6
Cc1cc(S(=O)(=O)NCCCn2ccnc2)c(C)cc1Cl,1,-2,-6,0.0,.,0.3,1.5,-3,-5,1.0
O=C(c1cccc([N+](=O)[O-])c1)N1CCN(C/C=C/c2ccccc2)CC1,-12,-2,16,-0.1,0%,2.6,3.3,6,1,1.9
S=C(N/N=C/c1cccc2ccccc12)Nc1cccc(Cl)c1,-6,8,13,-0.1,-1%,-0.7,2.1,2,-1,6.6
C/C(=N\NC(=O)C1(C)CC1(Br)Br)c1cccc(NC(=O)C(C)(C)C)c1 (stereo not given),-1,-5,9,-0.6,.,-3.5,.,.,.,.
CCOc1ccccc1CN1CCNC(=O)C1CC(=O)N(C)CCc1cnn(C)c1 (stereo not given),4,-6,2,0.3,.,1.3,0.0,8,8,-0.3
CCCOC(=O)c1c(NC(=O)/C=C/c2cnn(C)c2C)sc(C(=O)OCC)c1C,?,15,1,-0.1,?,-1.8,.,.,.,.
CC(C)c1nc(SCC(=O)NC2CCCC2)c2ccccc2n1,-10,0,11,-0.4,.,-0.9,-0.4,5,10,-2.9
CCCc1cc2c(=O)c(-c3ccc4c(c3)OCCO4)coc2cc1OC(=O)c1ccco1,-8,4,7,-1.1,-4%,-0.3,.,.,.,.
CCc1ccccc1NC(=O)CSc1nnc([C@@H](NC(=O)OC(C)(C)C)C(C)C)o1,10,-9,17,0.2,1%,2.5,.,.,.,.
C=C(C)Cn1c(SCC(=O)N/N=C/c2ccccc2)nc2ccccc2c1=O,5,.,7,0.0,-2%,-1.3,-0.4,13,8,-3.9
CC(C)OC(=S)N/C(=N\S(=O)(=O)c1ccccc1)c1ccccc1,-3,2,1,0.1,6%,-0.9,.,.,.,.
CCC(CO)NCc1ccccc1OC(C)C (stereo not given),-3,-5,-5,0.1,-7%,-3.5,7.5,9,1,-5.4
COc1cccc(C2c3c(oc4cc(C)c(C)cc4c3=O)C(=O)N2CCCN(C)C)c1 (stereo not given),12,-1,-5,-0.5,1%,3.8,.,.,.,.
CC(C)(C)CC(C)(C)c1ccc(OCC(=O)N/N=C/c2ccc(S(=O)(=O)O)o2)cc1,8,-8,-6,-0.6,6%,0.7,-4.7,18,14,3.5
FC(F)(F)c1cccc(Nc2nc(N3CCCC3)nc(N3CCCC3)n2)c1,-18,1,16,0.7,17%,-0.6,-0.1,7,4,-0.9
Cc1ccccc1N=C1c2cc([N+](=O)[O-])ccc2-c2ncccc21,12,0,2,0.4,?,5.5,?,.,.,.
O=C(OCn1nnc2ccccc2c1=O)c1cccnc1Cl,4,-6,.,-0.3,1%,0.7,.,.,.,.
Cc1ccc(CNC(=O)C2CC2c2ccccc2)cc1 (stereo not given),-1,-1,3,0.7,-6%,0.6,.,.,.,.
COc1cc(NC(=O)c2ccco2)c(OC)cc1NC(=O)CCC(=O)Nc1cc(C)cc(C)c1,-39,-2,-18,-0.3,3%,-2.0,.,.,.,.

# 13 of the compounds above, with bars between the fields.
compound | Calb FLC | Beta apoptosis | T cruzi inh | Bfl-1 A1 inh | Vif TR-FRET | RanGTP-Impb inh | MLL AF4-AF9 inh | rRNA inh HTS | rRNA inh HTS OD600 | rRNA inh HTS RFP
CC(C)c1nc(SCC(=O)NC2CCCC2)c2ccccc2n1 | -10 | 0 | 11 | -0.4 | . | -0.9 | -0.4 | 5 | 10 | -2.9
CCCc1cc2c(=O)c(-c3ccc4c(c3)OCCO4)coc2cc1OC(=O)c1ccco1 | -8 | 4 | 7 | -1.1 | -4% | -0.3 | . | . | . | .
CCc1ccccc1NC(=O)CSc1nnc([C@@H](NC(=O)OC(C)(C)C)C(C)C)o1 | 10 | -9 | 17 | 0.2 | 1% | 2.5 | . | . | . | .
C=C(C)Cn1c(SCC(=O)N/N=C/c2ccccc2)nc2ccccc2c1=O | 5 | . | 7 | 0.0 | -2% | -1.3 | -0.4 | 13 | 8 | -3.9
CC(C)OC(=S)N/C(=N\S(=O)(=O)c1ccccc1)c1ccccc1 | -3 | 2 | 1 | 0.1 | 6% | -0.9 | . | . | . | .
CCC(CO)NCc1ccccc1OC(C)C (stereo not given) | -3 | -5 | -5 | 0.1 | -7% | -3.5 | 7.5 | 9 | 1 | -5.4
COc1cccc(C2c3c(oc4cc(C)c(C)cc4c3=O)C(=O)N2CCCN(C)C)c1 (stereo not given) | 12 | -1 | -5 | -0.5 | 1% | 3.8 | . | . | . | .
CC(C)(C)CC(C)(C)c1ccc(OCC(=O)N/N=C/c2ccc(S(=O)(=O)O)o2)cc1 | 8 | -8 | -6 | -0.6 | 6% | 0.7 | -4.7 | 18 | 14 | 3.5
FC(F)(F)c1cccc(Nc2nc(N3CCCC3)nc(N3CCCC3)n2)c1 | -18 | 1 | 16 | 0.7 | 17% | -0.6 | -0.1 | 7 | 4 | -0.9
Cc1ccccc1N=C1c2cc([N+](=O)[O-])ccc2-c2ncccc21 | 12 | 0 | 2 | 0.4 | ? | 5.5 | ? | . | . | .
O=C(OCn1nnc2ccccc2c1=O)c1cccnc1Cl | 4 | -6 | . | -0.3 | 1% | 0.7 | . | . | . | .
Cc1ccc(CNC(=O)C2CC2c2ccccc2)cc1 (stereo not given) | -1 | -1 | 3 | 0.7 | -6% | 0.6 | . | . | . | .
COc1cc(NC(=O)c2ccco2)c(OC)cc1NC(=O)CCC(=O)Nc1cc(C)cc(C)c1 | -39 | -2 | -18 | -0.3 | 3% | -2.0 | . | . | . | .
